Source: PubChem
VDR inh: vitamin D3 receptor (human) inhibition. VDR-SRC2-3 peptide fluorescence polarization, 2 h. Potency, µM, for inactives: max response, negative = inhibition, hits mostly inhibitors. 0.93% of 400,000 active. P11473; active means well fitted inhibition curve with a large enough effect; inconclusive means small, poorly fitted or top-dose-only effect, or another doubt; inactive means no such curve, though single readings can be large or run the other way; further: series mostly up to about 120 µM
Target sequence (P11473 whole entry, looked up): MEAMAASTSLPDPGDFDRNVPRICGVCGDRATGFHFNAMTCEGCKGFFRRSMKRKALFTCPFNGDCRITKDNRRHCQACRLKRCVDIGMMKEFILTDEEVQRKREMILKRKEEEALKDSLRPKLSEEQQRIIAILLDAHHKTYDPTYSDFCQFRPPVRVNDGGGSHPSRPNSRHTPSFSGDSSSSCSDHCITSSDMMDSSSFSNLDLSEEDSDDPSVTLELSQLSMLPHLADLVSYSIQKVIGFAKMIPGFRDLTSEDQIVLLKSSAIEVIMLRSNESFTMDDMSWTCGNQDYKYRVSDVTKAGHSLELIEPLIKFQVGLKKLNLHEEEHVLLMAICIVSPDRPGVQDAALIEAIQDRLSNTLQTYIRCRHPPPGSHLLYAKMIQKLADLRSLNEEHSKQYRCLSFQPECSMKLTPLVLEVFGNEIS
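Fluorescence polarization assay of small-molecule disruption of VDR binding to coregulator peptide SRC2-3. Compounds and controls pin-transferred, then read after 2 h incubation at ambient room temperature.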
Active calls of the source: *; ? = inconclusive. On the % scale 0 is the no-effect control and ±100 the full control effect; potency means the concentration at half of the fitted maximal effect. The list is partial; rates above refer to the full screens.

SMILES	VDR inh
O=C(Nc1nc2ccccc2s1)C1CCCN1S(=O)(=O)c1ccc(Cl)cc1 (centres undefined)	12.1%
O=C(COC(=O)C1CCCCC1)NCc1ccc(Cl)cc1	-9.2%
CCn1cc2nc(SCc3cccc(C(F)(F)F)c3)n(CCc3ccccc3)c(=O)c2n1	10.4%
COc1ccccc1NC(=O)CCC(=O)Nc1nnc(C(F)(F)F)s1	-10.4%
Cc1cc(N2CCN(c3ccccn3)CC2)n2nc(C)nc2n1	6.8%
COc1ccc(-c2ccc3ccccc3n2)cc1OC	7.9%
c1ccc(CN2CCOCC2)cc1	2.4%
O=C(CN1CCCCC1)N1c2ccccc2CCc2ccccc21	0.6%
CC(=O)OC1C(N2CCCCC2)c2c(ccc(/C=C/C(=O)N3CCCCC3)c2O)OC1(C)C (centres undefined)	7.2%
COC(=O)c1cc(OC)c(OC)cc1NC(=O)Nc1cccc(C(C)=O)c1	-14.5%
COc1cc2c(cc1OC)-c1cc(N3CCc4ccccc43)nc(=O)n1CC2	11.6%
O=C1CN(C(=O)c2cccc(Br)c2)c2ccccc2N1	0.7%
Cc1csc(=O)n1CC(=O)OCc1nnc(-c2ccc([N+](=O)[O-])cc2)o1	-1.0%
O=S(=O)(N/N=C/c1ccc(Cl)cc1)c1ccc(Cc2ncc(C(F)(F)F)cc2Cl)s1	-2.7%
COc1ccc(C(=O)Nc2ccc(-c3cc(C(F)(F)F)nn3-c3ccccc3)cc2)cc1OC	0.8%
COC(=O)c1cc(OC(=O)CCc2ccc(OC)c(OC)c2)cc(C(=O)OC)c1	2.0%
O=C(CNS(=O)(=O)c1cccs1)N1CCN(c2cccc(C(F)(F)F)c2)CC1	14.6%
CCCCNC(=O)C(Sc1ccccc1)c1ccccc1 (centres undefined)	-18.5%
Cc1ccc(S(=O)(=O)N2CC(O)C2)cc1	-12.5%
CC(=O)N/C(=C/c1ccc2c(c1)OCO2)C(=O)Nc1ccccc1	-8.0%
Cc1ccc(C(=O)Nc2nc3nc(C)cc(=O)n3[nH]2)cc1	-5.6%
COc1ccc(C2CC(c3cccc(C(F)(F)F)c3)=NN2c2ccc(S(N)(=O)=O)cc2)cc1 (centres undefined)	-11.1%
O=C(c1ccc(Cl)cc1)c1cc([N+](=O)[O-])ccc1N1CCOCC1	?
NNC(=O)c1cccc(COc2ccc3c(c2)CCC3)c1	-19.1%
Cc1c(Cl)cccc1NC(=O)CSc1nc(=O)n(Cc2ccccn2)c2c1CCC2	-1.5%
Cn1c(C(=O)NCC2CCCO2)cc2c(=O)n3ccccc3nc21 (centres undefined)	-15.2%
CCCc1cc(=O)[nH]c(SCc2nc3ccccc3o2)n1	8.5%
CCOC(=O)N/N=C/c1cc(C)n(-c2cccc3ccccc23)c1C	-7.6%
Cc1cccc(NS(=O)(=O)c2ccc3c(c2)oc(=O)n3C)c1C	2.2%
O=C(O)CC/C(=C\c1cccc(NC(=O)c2ccccc2Cl)c1)c1nc2ccccc2s1	-7.1%
CCc1ccc(-n2nnc(-c3nc(-c4ccc(C)cc4)no3)c2N)cc1	-5.0%
COc1cccc(C(=O)CC(=O)C(=O)Nc2ccc(C)cc2Cl)c1	-2.6%
O=C(CNC(=O)c1ccc(F)cc1)N/N=C/c1cccnc1	-2.2%
Cc1ccc(C)c(S(=O)(=O)Nc2ccc(O)c3ccccc23)c1	?
CC(C)c1ccc(NC(=O)NCc2ccc(F)cc2)cc1	-8.8%
COc1ccc2nc(N3CCN(C(=O)C4CC4)CC3)sc2c1	-29.8%
CC1=C(C(=O)Nc2ccccc2)C(c2cccc([N+](=O)[O-])c2)Nc2nc3ccccc3n21 (centres undefined)	10.8%
COc1ccc(C2/C=C\CN(C(=O)c3ccc(C)cc3)[C@H](Cc3ccccc3)C(=O)N2Cc2ccc(F)cc2)cc1 (some centres undefined)	1.1%
O=C(CC1SC(=NCCc2ccccc2)N(/N=C/c2cccs2)C1=O)Nc1ccc(Cl)cc1 (centres undefined)	-7.1%
O=C(O)Cc1ccc2ocnc2c1	4.6%
CNC(=S)c1cc(C(C)(C)C)c(O)c(C(C)(C)C)c1	-10.1%
Cc1ccc(S(=O)(=O)N2CCN(C(=O)Cn3cnc4c3c(=O)n(C)c(=O)n4C)CC2)cc1C	15.0%
O=C1CCN(Cc2cccnc2)CCN1[C@H](CO)Cc1ccccc1	-19.1%
O=C(NCc1ccc2c(c1)CCN2C(=O)c1ccccc1)c1ccc(Br)o1	19.5%
CC(C)Oc1ccc(C(=O)NC2(C(F)(F)F)NC(=O)N(CCCc3ccccc3)C2=O)cc1 (centres undefined)	-2.7%
CCc1ccc(CNC(=O)c2c3c(nc4ccccc24)C(=O)N(C2CCCCC2)C3)cc1	3.7%
COc1cccc(C(=O)Nc2ccc(N3CCCC3)cc2)c1	-12.6%
COc1cc(NC(=O)c2ccc(-c3ccc(Br)cc3)o2)ccc1NC(=O)C(C)C	4.3%
O=C(c1ccccc1)N1CCN(S(=O)(=O)N2CCCCCC2)CC1	-5.7%
C/C(=N\NC(=O)CNC(=O)c1ccncc1)c1ccc(C)cc1	-11.1%
O=C(Cn1cc(SCc2ccc(C(F)(F)F)cc2)c2ccccc21)N1CCOCC1	8.0%
NCCCC[C@H](NC(=O)[C@@H]1CCCN1C(=O)[C@@H](N)CCCN=C(N)N)C(=O)N1CCC[C@H]1C(=O)N[C@@H](CCC(N)=O)C(=O)N[C@@H](CCC(N)=O)C(=O)N[C@@H](Cc1ccccc1)C(=O)O	-14.2%
COc1ccc(N2CCN(C(=O)COC(=O)c3cc(S(=O)(=O)N(C)C)ccc3N3CCCC3)CC2)cc1	-14.8%
CN1CCN(S(=O)(=O)c2cccc(C(=O)N3CCN(c4ccccc4)CC3)c2)CC1	-18.7%
Cc1cc(Cl)ccc1NC(=O)COC(=O)c1c(C)noc1C	-13.4%
O=C(NCc1ccccc1Cl)c1cnccn1	-5.1%
CC(=O)C1=C(c2ccc(F)cc2)N(C(C)=O)n2c(nnc2C2CCCCC2)S1	11.9%
COC(=O)c1cn(NC(=O)Cc2c(F)cccc2Cl)c(=O)c2ccccc12	4.0%
O=C(OC1CCCC1)c1ccc(Cl)cc1Cl	-1.2%
COc1cc(NC(=O)CSc2ncc3c(n2)-c2ccc(Cl)cc2N(Cc2ccccc2)S3(=O)=O)cc(OC)c1	-5.5%

New compounds follow.
SMILES	VDR inh
CCOc1cc(CNCc2cccs2)cc(Br)c1OCC	-1.8%
O=C(Nc1cccc(-c2nnc(-c3ccccc3)o2)c1)c1ccc(Br)o1	7.1%
COc1ccc(-c2nn(-c3cccc(F)c3)c3c2cnc2cc(OC)c(OC)cc23)cc1	11.6%
CC1(C)CC(=O)C2=C(C1)N(c1ccccc1)C(=O)CC2c1ccsc1 (centres undefined)	-17.2%
CCOc1ccc(C(=O)C2CCN(CC(=O)Nc3ccccc3N3CCOCC3)CC2)cc1	-5.1%
O=C(c1cccc(F)c1F)N1CCCc2ccccc21	-10.9%
Cn1c(=O)c2ncn(CC(=O)NCCC3=CCCCC3)c2n(C)c1=O	-9.7%
COc1ccc(N2CCN(C(=O)CSc3nnc(NC(=O)C4CC4)s3)CC2)cc1	-11.6%
Cc1cccc(-n2nnnc2SCC(=O)Nc2cccc(S(N)(=O)=O)c2)c1	?
CCCC(c1nnnn1CCOC)N1CCN(c2cccc(OC)c2)CC1 (centres undefined)	0.9%
CC(C)(C)C(=O)Nc1cccc(C(=O)Nc2cc(C(=O)O)cc(C(=O)O)c2)c1	-14.7%
NC(=O)c1sc2nc3c(c(-c4ccccc4)c2c1N)CCC3	12.7%
CC1CCN(C(=O)CSc2nnc(CNC(=O)c3c(F)cccc3F)o2)CC1	-19.3%
Cc1cc(CNC(=S)Nc2cccc(Cl)c2Cl)nn1C	-7.7%
COC(=O)c1ccccc1NC(=O)c1cc2nc(-c3ccc(OC)cc3)cc(C(F)(F)F)n2n1	12.7%
O=C(c1ccncc1)N(Cc1cc2ccccc2[nH]c1=O)C1CCCCC1	-2.4%
CC(OC(=O)c1snc(C(=O)NC2CCCCC2)c1N)C(=O)NC1CCCCC1 (centres undefined)	-16.5%
COC(=O)N1c2ccccc2CCc2ccccc21	2.6%
CC(C)Nc1nnc(SCC(=O)Nc2ccc(F)cc2)s1	1.2%
Cc1nc(-n2nc(C)c(Cc3ccc(Cl)cc3)c2C)sc1C(=O)N1CCCCC1C (centres undefined)	10.6%
COc1ccc(NC(=O)O/N=C/c2ccccc2)cc1	-2.7%
CC(C)c1nnc(SCc2ccc(CSc3nnc(C(C)C)n3N)cc2)n1N	12.6%
CC1CCCCC1NC(=O)C1Cc2ccccc2CN1S(C)(=O)=O (centres undefined)	14.9%
Cc1ccc(OCC(=O)Nc2nnc(C3CCCO3)s2)c(Br)c1 (centres undefined)	-18.7%
COC(=O)c1ccc(C2C=C(c3ccc(Cl)cc3)Nc3nc4ccccc4n32)cc1 (centres undefined)	-1.9%
N#CC1=C2SCN(c3ccccc3)CN2C(=O)CC1c1c(Cl)cccc1Cl (centres undefined)	22.4µM*
COc1ccc(/C=C/C(=O)NC(=S)NN2CCCCC2c2cccnc2)cc1OC (centres undefined)	2.7%
COc1cccc2c1C(CO)N1C(C#N)C3CC(C(=O)O)C(C1C2)N3C (centres undefined)	-3.5%
Cc1nc(-n2nnc3cc(C)c(C)cc32)c2c3c(sc2n1)CCCC3	-11.0%
Cc1ccccc1OCCNc1cc(N2CCN(CCO)CC2)ccc1[N+](=O)[O-]	1.6%
Cc1ccc(C(=O)NCCc2cccs2)cc1	-0.2%
COc1ccc(OC)c(/C(C)=N\NC(=O)c2cc3cc(Cl)ccc3n2C)c1	8.6%
CCN1CCc2c(OCC(=O)N3N=C(c4cccs4)CC3c3ccc(F)cc3)cccc2C1=O (centres undefined)	-22.4%
Cc1ccc(C)c(NC(=S)c2ccccn2)c1	-14.0%
CCCCCCc1cc2cc(S(=O)(=O)c3ccc(Cl)cc3)c(=O)oc2cc1O	10.7%
CC(OC(=O)c1cc(Br)ccc1O)C(=O)NCc1ccc2c(c1)OCO2 (centres undefined)	-11.0%
Cc1cc(NC(=O)c2c(F)cccc2Cl)no1	1.5%
O=C(CC12CC3CC(CC(C3)C1)C2)NC(=S)NCc1ccco1	-6.4%
O=C(CCc1ccccc1)NNC(=O)c1ccncc1	-21.6%
Cc1nc(/N=C\c2ccc(N(C)C)cc2)sc1C	-17.1%
COc1cccc(C2C(C#N)=C(N)SC(c3ccccc3)C2[N+](=O)[O-])c1 (centres undefined)	-2.0%
CC(=O)Nc1ccc(Sc2ncnc3scc(-c4ccccc4)c23)cc1	-18.0%
N#Cc1ccc(NC(=O)CCc2nc3ccccc3s2)cc1	8.0%
Cc1ccc(-n2nc3c(N4CCC(C(=O)NCCC(C)C)CC4)nnc(C)c3c2C)cc1	5.5%
CCN(C[C@H]1N[C@@](C)(C(=O)OC)[C@H]2C(=O)N(Cc3ccccc3)C(=O)[C@@H]12)C(=O)c1ccccc1	-11.9%
O=C(O)CSCc1ccc(C(=O)O)o1	0.5%
O=C(O)c1ccc(N/N=C/c2cc3cc4c(cc3nc2Cl)OCCO4)cc1	11.3%
CCOC(=O)C1CCCN(C(=O)c2ccccc2NC(C)=O)C1 (centres undefined)	-0.9%
Cn1c(N)c(N=Nc2ccc(S(N)(=O)=O)cc2)c(=O)n(C)c1=O	-5.9%
CSCC[C@H](NC(=O)N1CCn2c1nc1ccccc12)C(=O)NCc1ccc(F)cc1	3.6%
CN(CC(=O)Nc1c(Cl)cccc1Cl)C(=O)c1ccccc1-c1nc2ccccc2s1	-26.7%
C1=CC2CC1CC2CNCc1ccco1 (centres undefined)	8.8%
COC(=O)CN1C(=O)[C@H]2[C@@H](C3CC3)N3C(=O)CN(Cc4ccc(-c5ccccc5)cc4)C(=O)[C@@]3(Cc3ccccc3)[C@H]2C1=O	-1.6%
COc1ccc(C2CC(=O)C=C(NCC3CCCO3)C2)cc1 (centres undefined)	6.0%
O=C(OCc1nc2ccccc2s1)c1cccc(N2C(=O)CCC2=O)c1	-7.8%
Cc1ccc(NS(=O)(=O)c2ccc3[nH]c(=O)[nH]c3c2)c(C)c1	18.9%
CCn1c(C)[n+](CCOCC[n+]2c(C)n(CC)c3cc(Cl)c(Cl)cc32)c2cc(Cl)c(Cl)cc21	-4.1%
O=c1[nH]c(-c2ccccc2O)nc2c1CCCC2	19.2%
Cc1cc(C)cc(OCC(=O)NNC(=O)CCC(=O)NCc2ccccc2)c1	2.8%
CCc1ccc(N2CC(C)Cn3c2nc2c3c(=O)[nH]c(=O)n2C)cc1 (centres undefined)	9.6%
CCOc1ccc(/C=N/Nc2nc(N3CCCC3)nc(N3CCCC3)n2)cc1OC	-2.8%
